Arbovirus inh = antivirals against arbovirus infection, primary screen, cell-based, full library, 10K replicate subset | inhibition, % at 10 µM | 200,000 compounds, 0.37% hits | AID 1251, 2008 | arbovirus infection cell-based antiviral screen;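 active = inhibition from about 30%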;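 note: bluetongue infection of BSR cells; cell survival read as ATP light after 72 h; 0% = infected wells without compound and 100% = uninfected wells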
YopH PTP inh = YopH tyrosine phosphatase inhibitors, primary screen, biochemical, fluorescence Ex485/Em525; 140,000 compounds, 0.16% hits; inhibition, %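 (about 10 µM by stock and volumes)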;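 active = inhibition of 50% or more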;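 note: controls were vehicle for no effect and minimum signal wells for full effect; inactives centre near -20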
Mtb betalactam = beta-lactam sensitization of Mtb H37Rv, H37Rv. M. tuberculosis H37Rv growth with meropenem, percent inhibition; hits of this screen are not shown here. 330,000 compounds, 0.27% hits. inhibition, % at 25 µM. AID 434955, 2010;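 active = about 74% or more and at least 40 points above the plate without the antibiotic, then above 30% in a dose series; inconclusive = first-round hits that could not be retested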;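 note: growth measured after seven days incubation then overnight dye step; 0% = bacteria only wells and 100% = bacteria with antibiotic; twin plates without the antibiotic show which effects depend on it; some results filed as inactive read as strong as hits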
RecA intein inh = Mtb RecA intein splicing inhibitors, primary screen, biochemical, fluorescence, HTS. cell-free RecA intein splicing. inhibition, %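 (about 9 µM by stock and volumes)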. 290,000 compounds, 0.75% hits. Protein RecA (Mycobacterium tuberculosis (strain ATCC 25618 / H37Rv)), P9WHJ3; in the data active = inhibition above about 30%; inconclusive = no clear call, values can overlap the other calls;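 note: 0% = vehicle wells and 100% = reference inhibitor control wells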
Target sequence (P9WHJ3 whole entry, looked up): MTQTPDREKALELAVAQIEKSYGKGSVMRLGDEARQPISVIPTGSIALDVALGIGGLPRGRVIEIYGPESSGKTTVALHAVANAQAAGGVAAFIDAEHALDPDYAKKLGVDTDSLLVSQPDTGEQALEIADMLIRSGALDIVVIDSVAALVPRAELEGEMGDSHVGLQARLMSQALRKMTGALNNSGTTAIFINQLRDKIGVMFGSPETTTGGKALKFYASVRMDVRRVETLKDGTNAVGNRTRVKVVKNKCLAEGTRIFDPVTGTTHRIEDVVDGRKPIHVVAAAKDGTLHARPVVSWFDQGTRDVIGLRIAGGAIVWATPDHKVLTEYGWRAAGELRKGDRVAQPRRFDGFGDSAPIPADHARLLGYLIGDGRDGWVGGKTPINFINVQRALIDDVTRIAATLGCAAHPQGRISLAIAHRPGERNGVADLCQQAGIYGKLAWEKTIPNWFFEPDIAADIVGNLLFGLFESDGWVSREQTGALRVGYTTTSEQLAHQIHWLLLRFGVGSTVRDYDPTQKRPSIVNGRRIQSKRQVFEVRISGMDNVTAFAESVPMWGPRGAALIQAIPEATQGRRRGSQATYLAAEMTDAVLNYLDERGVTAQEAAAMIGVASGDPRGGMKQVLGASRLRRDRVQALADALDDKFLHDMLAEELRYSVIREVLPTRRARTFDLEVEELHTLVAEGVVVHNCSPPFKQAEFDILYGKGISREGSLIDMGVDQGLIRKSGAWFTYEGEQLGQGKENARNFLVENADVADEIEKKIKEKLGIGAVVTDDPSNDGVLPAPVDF
Mtb H37Rv = M. tuberculosis H37Rv growth inhibitors, H37Rv strain (AID 1626); M. tuberculosis H37Rv growth inhibition; higher % means a stronger effect; one-dose inhibition, % at 10 µM; IC50 in µM for titrated hits; 220,000 compounds, 0.95% hits;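 active = confirmed in a dose series; inconclusive = inhibition above 80% but not taken into the dose series; inactive = below 80% or under 30% at every dose of the series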;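 note: bacteria incubated seven days before Alamar blue readout; 0% = bacteria only wells and 100% = bacteria with antibiotic wells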
Arbovirus inh repeat = further read-out of Arbovirus inh, marked with its call; inhibition, %; measured here: 10K subset replicate screen; many hits read low in the repeat;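 first of two repeat runs on a subset; 0% = infected and 100% = uninfected wells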
Starred values were filed as active, the others as inactive; ? = inconclusive; / = not tested or not shown. A portion of the library; the hit share may differ from the screen's.

SMILES | Arbovirus inh | YopH PTP inh | Mtb betalactam | RecA intein inh | Mtb H37Rv | others
CCn1c(O)c(C=Nc2ccc(S(N)(=O)=O)cc2)c(=O)[nH]c1=S | 3 | -20 | 12 | -3.8 | 7%
C/C(N)=C(/C#N)C(=O)CSc1nn(-c2ccc(Cl)cc2)c(=S)s1 | -13 | / | 0 | 5.5 | 3%
CC(NC(=O)c1ccc(F)cc1)c1ccc2c(c1)CCCC2 (configuration not stated) | 1 | -44 | -6 | -2.8 | 2%
Cc1cc(C)nc(SCCCn2c(=O)[nH]c3ccccc32)n1 | -2 | -27 | -20 | 1.4 | -5% | Arbovirus inh repeat=0
CC1(C)CC(=O)c2c(nc3ccccc3c2N)C1 | -1 | -2 | 6 | 1.6 | -8%
CNC[C@H](CC1CCCCC1)NC[C@H](Cc1ccccc1)NCCC12CC3CC(CC(C3)C1)C2 | / | / | 98 | 19 | /
Cc1ccc(NC(=O)CSc2nnc(-c3ccccn3)n2N)c(Br)c1 | / | / | 0 | -3.5 | -2%
COc1ccc(C(=O)NCCCN2CCOCC2)cc1Br | / | / | -1 | -1.3 | /
COc1cccc(NC(=O)C(=O)N/N=C(\C)CC(=O)Nc2ccc(NC(C)=O)cc2)c1 | / | / | 15 | -2.4 | /
Cc1ccc(-c2c(C#N)c(N)nc3c2CCCC3)o1 | -11 | / | 2 | -1.7 | -11%
CCN(CC)C(=O)CSc1nnc(NC(=O)CCc2ccccc2)s1 | -3 | -17 | -1 | -0.2 | -2%
O=C(Nc1ccc(CN2CCCCC2)cc1)c1cccc(Br)c1 | -27 | -27 | -8 | -0.9 | 2%
COc1cccc(C(=O)O/N=C(\N)CS(=O)(=O)c2ccccc2)c1 | / | / | -5 | 2.3 | /
CSc1ccc(/C=N\NC(=O)COc2ccc(Cl)cc2Br)cc1 | -19 | -27 | 62 | 3.1 | 3%
CC(=O)NCCC(=O)N1CCCC(N2CCN(c3cccc(Cl)c3)CC2)C1 (configuration not stated) | / | / | -5 | -1.3 | /
Cc1cc(C)nc(Nc2ccccc2F)n1 | / | / | 6 | 1.0 | /
Nc1nnnn1/N=C/c1ccc(Cl)cc1 | / | / | -4 | -1.1 | /
Cc1c(NS(=O)(=O)c2ccc3nc(COc4ccccc4Cl)[nH]c3c2)c(=O)n(-c2ccccc2)n1C | -2 | / | 2 | 0.1 | 0%
COc1ccc(NC(=O)c2oc3ccc(S(=O)(=O)N4CCOCC4)cc3c2C)cc1 | -8 | / | 98 | -0.1 | 12%
CCCc1ccc(OCc2nc(-c3ccc(NC(=O)c4cccs4)cc3)no2)cc1 | -5 | -30 | 8 | -5.0 | 16%
CC(C)CC(=O)Nc1ccc(C(=O)NNC(=O)C(c2ccccc2)c2ccccc2)cc1 | -13 | -6 | -7 | 0.8 | 5%
O=C(NC1CCCCCC1)c1ccc(N2CCCC2=O)cc1 | 0 | -42 | 67 | 4.2 | -6%
COc1cc([N+](=O)[O-])cc(/C=N/NC(=O)c2cc(C)nc3ccccc23)c1O | / | / | 15 | 6.6 | 3%
Nc1nnc(SCC(=O)OCC(=O)Nc2ccc(Br)cc2)s1 | 8 | -11 | 2 | -2.3 | 5%
CCOC(=O)C1CCCN(C(=O)C2CC(=O)N(c3ccc(C)cc3)C2)C1 (configuration not stated) | -2 | -8 | -3 | 1.2 | -7%
COc1ccc(Cl)cc1NC(=O)c1cnccn1 | / | / | 3 | 0.1 | /
CCc1nc(SCC(=O)NNC(=O)c2ccc(C)cc2)c2ccccc2n1 | / | / | -5 | 6.8 | /
Cc1nc(CSc2nnc(Nc3cccc(C)c3C)s2)cs1 | 3 | -32 | 4 | 3.4 | 10%
COc1cccc(/C=C/C(=C2/C(=O)N(c3ccccc3)N=C2C)c2ccc(C)cc2)c1OC | 3 | -18 | 6 | 3.7 | 3%
CC(=O)N1CCSc2ccc(S(=O)(=O)Nc3cccc(C)c3)cc21 | / | / | 1 | 2.7 | /
O=c1c(Oc2ccccc2)coc2cc(O)cc(O)c12 | / | / | 0 | -0.3 | -6%
O=C(CSc1nc(-c2cccs2)cc(C(F)(F)F)n1)NCc1ccco1 | -2 | -14 | 4 | 0.9 | 3%
COC(=O)c1c(C)cc(O)c(C=O)c1O | / | / | -2 | -2.6 | -4%
CCOc1ccc(NC(=O)C/C(C)=N/NC(=O)c2cnccn2)cc1 | / | / | 98 | -1.0 | /
COc1cc(C(=O)NC(C)c2ccc3ccccc3c2)cc(Cl)c1O (configuration not stated) | / | / | -2 | 4.8 | /
Cc1ccccc1C(=O)Oc1ccc(Br)cc1C(=S)N1CCCC1 | 9 | -24 | -20 | -1.7 | 0%
Cc1c(Cl)cnc(NC(=O)COC(=O)Cc2coc3ccc4ccccc4c23)c1Cl | -1 | -24 | -2 | 2.9 | 7%
CCCCn1c(N)c(N(CCOC)C(=O)c2ccc(Cl)c(S(=O)(=O)N3CCCCC3)c2)c(=O)[nH]c1=O | / | / | 1 | -0.4 | /
CCOc1ccc(NC(=O)CCS(=O)(=O)c2ccc3c(c2)CCCN3C(C)=O)cc1 | -3 | -42 | 10 | -0.2 | 8%
O=C(CSc1ccc(-c2nc3ccccc3[nH]2)cn1)Nc1ccc(S(=O)(=O)NC2CC2)cc1 | -4 | -13 | 2 | -11 | 5%
CCCN1C(=O)/C(=C/c2c(N3CCNC(=O)C3CC(=O)OCC)nc3c(C)cccn3c2=O)SC1=S (configuration not stated) | / | / | -5 | -4.3 | -3%
Cc1ccccc1OCC(=O)N1CCN(C(=O)COc2ccccc2C)CC1 | / | / | -2 | 2.1 | /
COc1ccc(CNC(=O)C2COc3ccccc3O2)c(OC)c1 (configuration not stated) | -6 | -39 | 4 | -5.6 | /
Cn1c(SCc2nc3ccccc3[nH]2)nnc1-c1cccs1 | 1 | -49 | -13 | 0.0 | 1%
Cc1c(C(=O)O)cccc1-c1ccc(/C=N/Nc2ccc(Br)cc2)o1 | -30 | -24 | 97 | 1.6 | ?
CCOc1ccc(NC(=O)c2ccc(N)cc2)cc1 | -3 | -33 | 12 | / | -4% | Arbovirus inh repeat=-6
O=C(COc1ccccc1[N+](=O)[O-])NCc1cccnc1 | 5 | -23 | 3 | -2.5 | 5%
CCC1Oc2ccccc2N(CC(=O)NC2CC2)C1=O (configuration not stated) | / | / | 0 | 0.8 | /
O=C(O)c1ccc(/C=N/NC(=O)c2cc3c(ccc4ccccc43)o2)cc1 | / | / | 11 | -5.6 | /
Cn1nnnc1SCc1cn2cccnc2n1 | 0 | -3 | -12 | 0.6 | -71%
N#CCC(=O)NCCCOC(=O)Nc1ccc(Cl)c(Cl)c1 | 9 | -47 | -2 | 8.1 | -7%
CCNC(=O)c1ccccc1-c1nc(-c2ccccc2Cl)no1 | -7 | -32 | -7 | -0.1 | -2%
Cc1ccc(C(=O)N/C(=C\c2ccc(-c3ccccc3[N+](=O)[O-])o2)C(=O)NCCCN2CCOCC2)cc1 | / | / | -5 | 8.7 | /
COc1ccc(-n2c(SCC(=O)O)nnc2-c2ccc(NC(=O)c3ccccc3)cc2)cc1 | / | / | -5 | -0.4 | -3%
Cc1ccccc1-n1c(C)nnc1SCC(=O)N1CCc2ccccc2C1 | 11 | -32 | / | -0.1 | 7%
CCN1CCN(c2cc(C)c3cc(NC(=S)N4CCN(c5ccccc5F)CC4)ccc3n2)CC1 | -19 | / | -5 | -2.0 | 1%
O=C(O)C(Cc1ccccc1)Nc1ccc([N+](=O)[O-])cc1[N+](=O)[O-] (configuration not stated) | / | / | -2 | -2.8 | /
CCc1ccc(NC(=O)CSc2nnc(-c3cccs3)n2CC)cc1 | -2 | 0 | 45 | 3.0 | 67%
Cc1cc(Oc2ccccc2F)nc(NCc2ccccc2)n1 | 5 | -1 | / | 3.4 | /
Cc1ccc(C(=O)NCC(=O)Nc2ccccc2C(F)(F)F)cc1 | -2 | -24 | -3 | -1.4 | 3%
New compounds follow
SMILES | Arbovirus inh | YopH PTP inh | Mtb betalactam | RecA intein inh | Mtb H37Rv | others
CC1CCCN(C(=O)CSCC(=O)N=c2sc3ccccc3n2C)C1 (configuration not stated) | 0 | 4 | -4 | -11 | -4%
O=c1c2ccccc2nc(/C=C/c2ccc(F)cc2)n1-c1ccccn1 | / | / | -1 | 0.1 | -10%
O=C(CN1C(=O)NC(Cc2c[nH]c3ccccc23)C1=O)NCCc1ccccc1 (configuration not stated) | / | / | 2 | -5.2 | /
CCS(=O)(=O)c1ccc(O)c(NC(=O)COc2ccc(Br)cc2)c1 | 12 | / | 0 | -1.1 | -3%
CC(=O)c1ccc(NC(=O)C(C)OC(=O)CCCN=C2NS(=O)(=O)c3ccccc32)cc1 (configuration not stated) | / | / | 1 | -5.3 | /
COc1ccc(NC(=O)CC2C(=O)N(c3ccc(OC)cc3)C(=O)N2C(C)C)cc1 (configuration not stated) | -3 | -17 | -8 | -0.4 | 2%
CCOC(=O)C1CCN(C(=O)Nc2cccc(OC)c2)CC1 | / | / | -11 | 1.5 | 3%
CN(Cc1ccno1)Cc1cn(Cc2ccccc2)nc1-c1ccc2c(c1)OCO2 | -3 | / | 1 | 2.7 | -2%
CCSc1cnn(-c2ccccc2)c(=O)c1Cl | / | / | 29 | 2.8 | /
Cc1ccc(CN2CCN(/N=C\C=C\c3ccccc3)CC2)cc1 | -25 | / | 5 | 1.8 | -6%
CN(Cc1ccccc1)S(=O)(=O)c1ccc(Cl)c(C(=O)NCc2ccncc2)c1 | / | / | -16 | 0.6 | /
O=S(=O)(NCc1ccc2c(c1)OCO2)c1cccc(S(=O)(=O)N2CCOCC2)c1 | 4 | 6 | -2 | 0.5 | -5%
CCc1sc(C(=O)NCc2ccccc2)cc1C | -11 | / | 2 | 0.4 | 3%
NC(=O)c1cc(Cl)cn(-c2ccccc2)c1=O | 6 | -44 | 0 | -2.5 | -2% | Arbovirus inh repeat=-1
O=C(N/N=C/c1cc(Cl)cc([N+](=O)[O-])c1O)c1cc(-c2ccccn2)nc2ccccc12 | / | / | 13 | 6.3 | 2%
CCCC(c1nnnn1C1CCCCC1)N1CCN(C2CCCC2)CC1 (configuration not stated) | 7 | -14 | 1 | 0.1 | 0%
Brc1cccc(OCCn2ccnc2)c1 | 4 | -25 | 14 | -1.0 | -4%
COC(C[C@@H]1O[C@H]1C(=O)[C@@H](C)OCc1ccccc1)OC | / | / | 15 | 3.8 | -8%
Cc1ccc(S(=O)(=O)Nc2ccc(-n3cnnn3)cc2)cc1 | / | / | -2 | -1.5 | /
CNC(=O)c1oc(-c2ccccc2)nc1C | -3 | / | 1 | -1.5 | 0%
O=C(c1ccc(COCC(F)(F)F)o1)N1CCCC1 | -2 | / | -5 | 9.9 | 0%
CSc1ccccc1OCc1cc(C(=O)N2CCCC(C)C2)no1 (configuration not stated) | / | / | -7 | -1.3 | /
COCCNC(=O)C(=O)NNC(=O)COc1ccc(OC)cc1 | -3 | / | 97 | -3.0 | -1%
COC(=O)CCN(C(=O)C1C2CC3CC(C2)CC1C3)c1ccccn1 (configuration not stated) | 6 | -28 | -7 | 0.9 | -5%
O=[N+]([O-])CC(=Nc1ccc(F)cc1)N/N=C\c1oc(O)c2ccccc12 | / | / | -8 | 6.9 | /
Cc1cccc(-c2nc(CSCC(=O)N3CCN(c4ccccn4)CC3)c(C)o2)c1 | 8 | -16 | 2 | 1.6 | -5%
CC(Oc1ccccc1F)C(=O)NNC(=O)CCNC(=O)c1ccccc1Cl (configuration not stated) | / | / | -5 | 0.9 | /
O=C(CSc1nnc(-c2ccccc2O)o1)N1CCCCC1 | / | / | -5 | -3.5 | /
Cc1nn(-c2ccccc2)c2c1C(c1ccc(F)cc1)C(C#N)=C(N)O2 (configuration not stated) | -4 | -20 | 8 | 43* | 1%

Entries above that contain a nitro group on carbon, in the order listed:
SMILES | Arbovirus inh | YopH PTP inh | Mtb betalactam | RecA intein inh | Mtb H37Rv | others
COc1cc([N+](=O)[O-])cc(/C=N/NC(=O)c2cc(C)nc3ccccc23)c1O | / | / | 15 | 6.6 | 3%
O=C(COc1ccccc1[N+](=O)[O-])NCc1cccnc1 | 5 | -23 | 3 | -2.5 | 5%
Cc1ccc(C(=O)N/C(=C\c2ccc(-c3ccccc3[N+](=O)[O-])o2)C(=O)NCCCN2CCOCC2)cc1 | / | / | -5 | 8.7 | /
O=C(O)C(Cc1ccccc1)Nc1ccc([N+](=O)[O-])cc1[N+](=O)[O-] (configuration not stated) | / | / | -2 | -2.8 | /
O=C(N/N=C/c1cc(Cl)cc([N+](=O)[O-])c1O)c1cc(-c2ccccn2)nc2ccccc12 | / | / | 13 | 6.3 | 2%
O=[N+]([O-])CC(=Nc1ccc(F)cc1)N/N=C\c1oc(O)c2ccccc12 | / | / | -8 | 6.9 | /

Bioassay records: PubChem, several laboratories
